# Screens deposited in PubChem by National Center for Advancing Translational Sciences (NCATS).
# SARS PLpro yeast: inhibitors of SARS-CoV papain-like protease in yeast; S. cerevisiae expressing SARS-CoV PLpro, growth rescue; control for the full effect not named in the record; Potency, µM (doses to about 32.9 µM), for inactives: at the highest dose activity, positive = growth rescue; 330,000 compounds, 0.19% hits; further: 0% is about no effect; nearly all actives have a fitted effect of over 55% in size; growth read by luminescence after 48 h
# RE007 growth inh: less growth of the S. pombe RE007 Vpr strain. 360,000 compounds, 0.21% hits. S. pombe RE007 Vpr strain, BacTiter-Glo ATP luminescence, 24 h; control for the full effect not named in the record. Potency, µM (top dose mostly 92.2 µM), inactives show at the top dose activity change, negative = less growth; active = well fitted falling curve with a large enough effect; inconclusive = small, poorly fitted or top-dose-only effect; inactive = no such curve, though single readings can be large or run the other way;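 further: on the % scale 0 is the no-effect control and ±100 the full control effect; nearly all actives have a fitted effect of over 50% in size; the assay follows cell death caused by Vpr and the record does not say whether a fall means rescue or toxicity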
#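 Fission yeast RE007 carrying one integrated HIV-1 vpr copy, seeded at OD 0.01 in PMG+AL medium with 23 nL pinned compound. Grown 24 h at 30 degrees; viability read by BacTiter-Glo luminescence after 5 min.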
# StopGo reporter: FMDV 2A StopGo reporter, luciferase signal; human cells with a luciferase reporter of 2A StopGo recoding; control for the full effect not named in the record; Potency, µM (series often up to 57.9 µM), inactives show at the top dose signal change, negative = less light; 410,000 compounds, 1.2% hits; AID 1159524; active = well fitted falling curve with a large enough effect; inconclusive = small, poorly fitted or top-dose-only effect; inactive = no such curve, though single readings can be large or run the other way; tested in HEK293T cells; further: on the % scale 0 is the no-effect control and ±100 the full control effect; nearly all actives have a fitted effect of over 45% in size; luciferase light after 4 h
# Cruzain noTriton: inhibitors of Trypanosoma cruzi cruzain without detergent. P25779. purified cruzain, Z-FR-AMC fluorescence, no detergent. Potency, µM, inactives show max response, negative = inhibition, hits mostly inhibitors. 200,000 compounds, 2.3% hits. AID 1476; active means well fitted curve in the direction sought with a large enough effect; inconclusive means small, poorly fitted or top-dose-only effect, or another doubt; inactive means no such curve, though single readings can be large; an effect the other way counts as inactive or inconclusive;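 further: plate controls were enzyme without inhibitor for no effect and buffer without enzyme for full effect; nearly all actives have a fitted effect of over 40% in size; top concentration of the series not given in the record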
# Target sequence (P25779 123-467 limits assumed): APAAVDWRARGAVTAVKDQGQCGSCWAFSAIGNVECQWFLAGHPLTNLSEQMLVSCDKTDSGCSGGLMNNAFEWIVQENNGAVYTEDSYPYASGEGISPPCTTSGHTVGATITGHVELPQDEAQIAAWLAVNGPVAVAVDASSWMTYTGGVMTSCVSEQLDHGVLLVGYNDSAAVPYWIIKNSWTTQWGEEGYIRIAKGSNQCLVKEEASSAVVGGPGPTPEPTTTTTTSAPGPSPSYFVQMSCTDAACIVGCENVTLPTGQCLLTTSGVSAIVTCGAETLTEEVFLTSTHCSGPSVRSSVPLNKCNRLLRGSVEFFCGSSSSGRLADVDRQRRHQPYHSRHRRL
#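 Detergent-free condition (0.00005% Triton X-100) in acetate buffer pH 5.5 with DTT. 1.5 nM enzyme and compound were pre-mixed 15 min, then 2 uM Z-FR-AMC substrate added; reaction progress from fluorescence change between first and third reads (60 s).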
# LASV entry inh: Lassa virus entry inhibition; 300,000 compounds, 1.2% hits; AID 540256; Lassa virus pseudotype entry inhibition, cell reporter; control for the full effect not named in the record; Potency, µM (doses to about 37.9 µM), for inactives: at the top dose activity change, negative = inhibition, usual class: inhibitors; active means well fitted inhibition curve with a large enough effect; inconclusive means small, poorly fitted or top-dose-only effect, or effect the other way; inactive means flat fitted curve, though single readings scatter; tested in HEK293 cells; further: on the % scale 0 is the no-effect control and ±100 the full control effect; nearly all actives have a fitted effect of over 50% in size; luciferase read-out
# Cruzain inh Det: cruzain (T. cruzi) inhibition with detergent. 200,000 compounds, 0.43% hits. Potency, µM, for inactives: max response, negative = inhibition, actives largely listed as inhibitors. P25779. purified cruzain, Z-FR-AMC fluorescence, 0.01% Triton; active means well fitted curve in the direction sought with a large enough effect; inconclusive means small, poorly fitted or top-dose-only effect, or another doubt; inactive means no such curve, though single readings can be large; an effect the other way counts as inactive or inconclusive;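 further: plate controls were neutral wells for no effect and buffer without enzyme for full effect; nearly all actives have a fitted effect of over 40% in size; top concentration of the series not given in the record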
#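 Sodium acetate buffer (100 mM, pH 5.5) containing 5 mM DTT and 0.01% Triton X-100 hosted 1.5 nM cruzain and test compound for 15 min at room temperature. Cleavage of 2 uM Z-FR-AMC was then tracked by fluorescence.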
# NS1 function inh: influenza NS1 inhibition. S. cerevisiae slowed by influenza A NS1, growth recovery by OD600. Potency, µM (titrated, usually from 46.1 µM), for inactives: top-dose activity, positive = more growth. 270,000 compounds, 0.4% hits; further: actives are rising curves; nearly all actives have a fitted effect of over 50% in size
#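 Recovery from NS1-induced slow growth read by OD600 in budding yeast switched to galactose assay medium (pH 6.0, -URA) at 1:100 dilution. Compound 23 nl per well; the matching strain lacking NS1 serves as control.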
# Marburg entry inh: blocks Marburg virus binding to or entry into cells; Marburg virus pseudotyped entry inhibition, cell reporter; control for the full effect not named in the record; about a third of the inactives were read at about 46 µM; Potency, µM (doses to about 37.8 µM), without a hit: top-dose activity change, negative = inhibition, usual class: inhibitors; 300,000 compounds, 1.8% hits; AID 540276; active = well fitted inhibition curve with a large enough effect; inconclusive = small, poorly fitted or top-dose-only effect, or effect the other way; inactive = flat fitted curve, though single readings scatter; tested in HEK293 cells; about a fifth of its hits are not listed in these tables; further: on the % scale 0 is the no-effect control and ±100 the full control effect; luciferase read-out
# * hit, by the source's call; ? = inconclusive; / = no result given; & = joins results of further samples; [ ] = another dose, or the depositor's remark. Unless noted, the call rests on the fitted dose curve; in most records, active means well fitted rising curve with a large enough effect; inconclusive means small, poorly fitted or top-dose-only effect; inactive means no such curve, though single readings can be large or run the other way. Potency means the concentration at half of the fitted maximal effect.
SMILES,SARS PLpro yeast,RE007 growth inh,StopGo reporter,Cruzain noTriton,LASV entry inh,Cruzain inh Det,NS1 function inh,Marburg entry inh
O=C(N/N=C/c1ccc(F)cc1)c1cccc(NC(=O)c2ccccc2Cl)c1,-6%,-12%,6%,/,1%[46.1 µM],/,3%,?
Cc1cc(C(=O)N2CC(C)CC(C)C2)n(-c2ccccc2)n1 (stereo not given),0%,-3%,-24%,-3%,/,-0.8%,-12%,/
Cc1cc(NS(=O)(=O)c2ccc3c(c2)OCCO3)no1,-1%,-2%,-11%,/,/,/,2%,/
O=C(CSc1nnc(NC(=O)Cc2ccccc2)s1)NCc1ccco1,0%,0%,2%,/,14%[46.1 µM],/,-1%,-11%[46.1 µM]
CCCCN(CCCNC(=O)c1ccc(CS(=O)(=O)c2c(Cl)cccc2Cl)o1)Cc1ccccc1,-1%,0%,-21%,/,/,/,-9%,/
CCCc1cc(=O)oc2cc(OC(C)C(=O)NCCCn3ccnc3)ccc12 (stereo not given),-17%,-5%,-1%,/,8%[46.1 µM],/,5%,?
CC1C(=O)CCC1(C(=O)O)c1ccccc1 (stereo not given),2%,25%,-15%,-8%,10%,-1.0%,0%,0%
Cc1cccn2c(=O)nc(SCC(=O)NCCc3ccccc3)nc12,2%,1%,-18%,/,21%,/,/,?
COc1cccc(N=C2CC(C)(C)CC(=O)/C2=C(/O)c2ccccc2)c1,-6%,-11%,-17%,/,/,/,/,6%[46.1 µM]
CCn1c(SCC(=O)NC2CCCC2)nnc1C(C)NC(=O)c1ccccc1F (stereo not given),3%,6%,-1%,/,9%[46.1 µM],/,2%,-1%[46.1 µM]
CCOC(=O)c1c(C)[nH]c(C(=O)CN2C(=O)NC(C)(c3ccc(C)cc3)C2=O)c1C (stereo not given),11%,0%,-22%,?,-9%,-7.7%,-11%,-29%&-29%
COc1ccc(OC2OC3COC(C)(C)OC3C(O)C2NC(C)=O)cc1 (stereo not given),-3%,8%,-18%,3%,5%,-1.2%,-1%,-9%
CN(C)CC(c1ccccc1)c1ccccc1,0%,2%,-7%,/,-8%,/,-1%,5%[46.1 µM]
Cc1ccc(CS(=O)(=O)c2ncc(Cl)c(C(=O)Nc3ccc(OC(F)F)cc3)n2)cc1,-5%,-6%,25µM*,/,?,/,-20%,?
Cc1ccc(C(=O)N2CCC(C)CC2)cc1NC1=NC2CS(=O)(=O)CC2S1 (stereo not given),1%,0%,0%,/,/,/,8%,/
CCNC(=O)CC1C(=O)N(c2ccc(OC)cc2)C(=O)N1CCOC (stereo not given),1%,1%,0%,/,/,/,6%,/
O=C(c1cc2c(s1)CCCC2)n1cccn1,0%,-16%,29%,-4%,20%,1.2%,-46%,?
CN(CC(=O)Nc1cccc(F)c1)C(=O)Cc1n[nH]c(=O)c2ccccc12,-2%,17%,-22%,/,-13%,/,/,-9%
CCOc1cc(C(N)=O)cc(Br)c1OCc1ccccc1,-2%,-2%,-8%,/,/,/,-2%,/
Cc1cc(NC(=O)c2ccc(Cl)cc2)cc(C)c1OCC(=O)N1CCOCC1,-7%,-2%,-7%,/,?,/,-7%,?
CCOC(=O)C1=C(CNCc2ccc(C)cc2)NC(=O)NC1c1ccc(OC)cc1 (stereo not given),4%,4%,-22%,6%,?,-2.7%,10%,5µM*
O=S(=O)(c1ccc(Br)s1)N1CCN(CCOc2ccccc2)CC1,-6%,3%,-25%,/,?,/,/,-26%
Cc1oc(/N=C/c2ccc(F)cc2)c(C#N)c1C,-1%,3%,45%[activator],/,/,/,16%,/
CC(C)[C@H](CO)Nc1nc(NCc2ccc(S(N)(=O)=O)cc2)c2ncn(C(C)C)c2n1,2%,-6%,-29%,/,/,/,5%,/
CCCCSc1nnc(CCC)n1N,-8%,-14%,12%,2%,11%,1.0%,10%,2%
CCOC(=O)C1CCCN(Cc2cn(C)nc2-c2ccc3c(c2)OCCO3)C1 (stereo not given),0%,-3%,-7%,/,/,/,2%,/
CC(C)N=C(NC#N)SCC(=O)NC(C)(C)C,-2%,11%,-2%,-3%,-14%,2.0%,1%,-8%
CCN(CC)c1ccc(/C=C2\C(=O)NC(=S)N(c3ccc(OC)cc3OC)C2=O)o1,/,6%,-8%,/,?,/,/,-29%
O=C1C=C(NCCN2CCOCC2)CC(c2ccccc2)C1 (stereo not given),3%,14%,/,-1%,-8%,-1.2%,6%,13%
O=C(COC(=O)CCc1ccc(S(=O)(=O)N2CCOCC2)cc1)NCc1ccc(Cl)cc1,-2%,18%,-20%,/,-5%,/,/,-1%[46.1 µM]
COc1cccc(C(=O)N2CCN(Cc3ccccc3C(F)(F)F)CC2)c1,-11%,0%,?,?,12%,-3.9%,-33%,3%&2%
CCSc1nnc(NC(=O)Cc2ccc(OC)cc2)s1,-6%,0%,3%,-12%,-3%,0.5%,6%,13%
O=c1c(F)cn(C2CCCO2)c(=O)n1Cc1ccc(Cl)cc1 (stereo not given),0%,-2%,-17%,/,13%,/,4%,-6%
Cc1cccc(C)c1NC(=O)CSc1nnc(-c2ccncc2)n1Cc1ccco1,4%,12%,/,4%,-5%,-4.8%,-1%,1%
COc1cn(-c2ccccc2)nc1C(=O)Nc1ccc(C)cc1,-47%,-27%,19%,/,?,/,-44%,?
COC(=O)c1c(NC(=O)C2CCCCC2C(=O)O)sc2c1CCCCC2 (stereo not given),0%,15%,69%[activator],/,/,/,6%,-6%[46.1 µM]
CC1CCCC(NC(=O)CNC(=S)N(Cc2ccccc2)Cc2cccs2)C1C (stereo not given),-7%,0%,0%,/,-30%,/,/,?
CCOc1ccccc1CNC(=O)CCCn1c(=O)c2cccn2c2ccc(F)cc21,/,/,?,18%,0%[46.1 µM],-8.5%,/,/
COC(Cn1c(-c2cccc(S(=O)(=O)N(C)C)c2)n[nH]c1=S)OC,-2%,0%,13%,/,-2%,/,/,15%[46.1 µM]
O=C(CO/N=C/c1ccccc1OC(F)F)NCc1ccco1,-2%,-3%,16%,/,-19%[46.1 µM],/,-5%,-18%[46.1 µM]
CCOc1ccc(CCNC(=O)CCc2c(C)nc3c(-c4ccccc4)c(C)nn3c2C)cc1OCC,/,/,-19%,-7%,28%[46.1 µM],-1.1%,/,14%[46.1 µM]
O=C(NN1C(=O)C2CC=C(Cl)CC2C1=O)c1ccncc1 (stereo not given),-1%,13%,-10%,/,/,/,4%,/
CCOC(=O)c1c(NC(=O)N/N=C/c2ccccc2OCC)sc(C(C)=O)c1C,21%,-15%,-14%,?,-11%,-0.9%,4%,-4%
Cc1cc(NC(=O)c2cc(CC(C)C)on2)no1,-6%,-13%,39%[activator],-6%,/,-1.0%,-4%,/
O=C(NC1CCN(S(=O)(=O)c2ccccc2)CC1)c1ccccc1,-2%,-3%,-19%,/,/,/,6%,/
Cc1ccsc1-c1nc(CSCC(=O)N2CCC3(CC2)OCCO3)c(C)o1,3%,-7%,-8%,4%,-12%,-1.0%,1%,1%
C/C(N)=C(/C#N)C(=O)COC(=O)C1Cc2ccccc2CN1S(C)(=O)=O (stereo not given),-1%,-1%&21%,?,6%,?,-5.0%,5%,20%[46.1 µM]
O=C(Cc1ccc(Cl)cc1)Nc1nnc2n1CCS2,/,/,18%,14%,-1%[46.1 µM],1.9%,/,/
O=C(O)CNS(=O)(=O)c1cc(Cl)c(Cl)cc1Cl,2%,36%,9%,3%,13%,5.4%,4%,7%
COc1ccc(-n2cnnc2SCC(=O)Nc2cccc(S(=O)(=O)N3CCCCC3)c2)cc1,12%,8%,-24%,10%,-4%,-0.7%,-3%,-11%
CCCS(=O)(=O)N1CCC(C(=O)N2CCN(Cc3ccccc3)CC2)CC1,1%,-2%,0%,-2%,13%,3.4%,-2%,10%
COc1ccc(OC)c(-n2c(-c3ccn[nH]3)n[nH]c2=S)c1,0%,-10%,10%,/,6%[46.1 µM],/,1%,15%[46.1 µM]
CCCC/C=C1/CCC(CN(C)C)C1=O (stereo not given),/,3%,28µM*,/,7%[46.1 µM],/,/,5%
CCc1cccc(CC)c1NC(=O)Cn1nnc2sc(-c3ccccc3)cc2c1=O,/,/,-11%,-7%,-18%[46.1 µM],-3.5%,/,11%[46.1 µM]
COc1ccc2c(C)cc(SC3CCOC3=O)nc2c1 (stereo not given),-1%,-1%,-13%,/,-1%,/,2%,28%[46.1 µM]
CCOC(=O)/C(=C\Nc1ccccc1C(F)(F)F)Sc1ncc(C(F)(F)F)cc1Cl,7%,-4%,?,?,13%,-3.3%,-1%,8%
COCCn1c(SCc2cc(C(C)=O)ccc2OC)nc2cc(Cl)ccc2c1=O,-9%,17%,-18%,18%,-13%,-10%,-4%,?
CS(=O)(=O)c1ccc2nc(NC(=O)C3=NN(c4ccccc4)C(=O)CC3)sc2c1,1%,-5%,-20%,/,/,/,1%,/
Cc1ccc2c(CNCc3ccc(C)o3)c(C(=O)O)n(Cc3ccccc3C)c2c1,/,/,-3%,?,13%[46.1 µM],-5.8%,/,/
Cc1cc(O)c(C(=O)/C=C/c2ccccc2)c(=O)o1,1%,-5%,11µM*,/,-12%,/,6%,-21%

# Remaining list, next part
SMILES,SARS PLpro yeast,RE007 growth inh,StopGo reporter,Cruzain noTriton,LASV entry inh,Cruzain inh Det,NS1 function inh,Marburg entry inh
Cc1oc(-c2ccc(Cl)cc2)nc1CS(=O)CC(=O)NCCN1CCCCCC1 (stereo not given),2%,-13%,0%,/,/,/,26%,/
CC(=O)N1CCc2cc(S(=O)(=O)N3CCc4ccccc4C3)ccc21,-9%,3%,-21%,0%,-4%,5.8%,-7%,-12%
COc1ccc(OC)c(NC(=O)c2ccccc2NC(=O)c2ccco2)c1,-2%,1%,-8%,/,-14%,/,-10%,-11%
CCN1CCN(CCCNC(=O)c2ccc3c(c2)NC(=O)c2ccccc2S3)CC1,-2%,-1%,-24%,-7%,/,1.7%,-9%,-8%
Cc1cccc(C)c1NC(=O)CCS(=O)(=O)c1cccc2nonc12,2%,3%,-4%&-9%,2%,-3%&13%[46.1 µM],-1.7%,?,?
CSCCC(C(=O)Nc1ccc2c(c1)OCO2)N1C(=O)c2ccccc2C1=O (stereo not given),-1%,-8%,0%,-16%,5%,0.1%,-7%,-11%&-11%
Cc1cccc2c1cnn2C(=O)CCC(=O)NC1CCCCC1,-1%,9%,-1%,/,/,/,12%,/
